# High-throughput results from PubChem.
# gsp agonist: agonists of gsp mutant (McCune-Albright syndrome); gsp mutant cells, cAMP HTRF, 30 min; control for the full effect not named in the record; Potency, µM (highest dose often 76.9 µM), for inactives: at the top dose activation (cAMP increase), most hits filed as activators; hit rate 0.13% among 340,000; active = well fitted activation curve with a large enough effect; inconclusive = small, poorly fitted or top-dose-only effect, or another doubt; inactive = no such curve, though single readings can be large or run the other way; cell line not stated here;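 note: phosphodiesterase inhibitor Ro 20-1724 added with compounds to block cAMP breakdown; potency is the fitted concentration of half-maximal effect; nearly all actives have a fitted effect of over 60% in size; about a fifth of the inactives were tested at one dose only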
#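 Cells in DMEM/10% FBS with G418 were pretreated with compounds in DMSO plus […] (300 uM stock) for 30 min at 37C. cAMP was measured by HTRF (cAMP-d2 plus anti-cAMP antibody-K) after 30 min at room temperature.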
# ClpP mod: qHTS Assay for Activators of ClpP. ATP-dependent Clp protease proteolytic subunit (Bacillus subtilis (strain 168)), P80244. purified B. subtilis ClpP, FRET peptide cleavage, 20 min. Potency, µM (series often up to 57.5 µM), inactives show top-dose activity change, negative = active. hit rate 1.9% among 340,000. AID 651965, 2013; active = well fitted falling curve with a large enough effect; inconclusive = small, poorly fitted or top-dose-only effect; inactive = no such curve, though single readings can be large or run the other way; note: potency is the fitted concentration of half-maximal effect; the source files actives as falling curves though it sought activators and does not explain the sign; nearly all actives have a fitted effect of over 65% in size; many hits overshoot -100%
# Target sequence (P80244 whole entry, looked up): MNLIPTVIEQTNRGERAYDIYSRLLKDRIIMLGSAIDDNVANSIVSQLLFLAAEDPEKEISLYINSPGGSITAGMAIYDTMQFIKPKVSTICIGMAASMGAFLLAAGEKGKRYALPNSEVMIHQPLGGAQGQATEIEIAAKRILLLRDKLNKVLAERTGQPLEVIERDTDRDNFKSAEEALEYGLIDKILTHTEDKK
#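 Purified B. subtilis ClpP, 10 microg/mL final in Tris/HCl pH8 with KCl, BSA, glycerol and Tween-20, cleaved an Abz/nitrotyrosine-quenched decapeptide. Fluorescence (ex 320, em 430) was read at 0 and 20 min at room temperature. Delta was normalized to 5.8 microM ADEP and DMSO/no-enzyme controls.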
# Menin-MLL FL inh: menin-MLL binding inhibition, fluorescein peptide; FP activity change, % at 61.4 µM; 290,000 tested, under 10 active; Fluorescence polarization, fluorescein-MLL peptide displacement from menin; inconclusive = falling polarisation curve, or a change in total fluorescence; inactive = total fluorescence flat and polarisation flat or rising; no compound was filed as active; the % refers to the polarisation; negative = inhibition;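 note: % of control where 0% means no effect; inhibitors lower the polarisation; unlabelled MLL peptide was the positive control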
# D2 PAM: potentiates the human D2 dopamine receptor allosterically; DiscoveRx D2 beta-arrestin cells, luminescence, 90 min; 100% = 57 uM dopamine signal; potentiation, % (no concentration beside the values); hit rate 0.23% among 360,000; AID 624464; P14416; active = potentiation of 50% or more; inconclusive = 30% to 50%; inactive = 30% or less;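 note: compound concentration not given in the record; tested on top of an EC20 dose of dopamine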
#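 PathHunter D2 cells, attached overnight at 37 deg C, received compound in DMSO plus dopamine at EC20 (50 nM final) for 90 min at 37 deg C. Beta-arrestin recruitment was read as luminescence after 1 h with detection reagent at ambient temperature.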
# Sfp inh: Sfp phosphopantetheinyl transferase inhibition; Biochemical Sfp PPTase activity, qHTS; Q9F4F7; Potency, µM, for inactives: max response, negative = inhibition, hits mostly inhibitors; hit rate 3.5% among 310,000; active = well fitted inhibition curve with a large enough effect; inconclusive = small, poorly fitted or top-dose-only effect, or another doubt; inactive = no such curve, though single readings can be large or run the other way;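 note: the enzyme is Sfp with the accession as filed and its product quenches rhodamine fluorescence; potency is the fitted concentration of half-maximal effect; 0% = enzyme reaction without inhibitor and -100% = no enzyme wells; top concentration of the series not given in the record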
#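 With Hepes-Na pH 7.6 buffer containing 10 mM MgCl2, Sfp (15 nM) modified BHQ-2-YbbR (12.5 uM) using rhodamine-CoA (5 uM). Two reads 30 minutes apart at 525/598 nm yielded each well's rate.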
# TRPV1 PAM: potentiators of human vanilloid receptor 1 (TRPV1) | TRPV1-expressing cells, Fluo-8 calcium influx, capsaicin EC20 potentiation; host cell line not named in the record; control for the full effect not named in the record | Q8NER1 | hit rate 0.02% among 320,000 | potentiation, % at 8.33 µM | AID 540277; active means potentiation above 80%; inconclusive means 30% to 80%; inactive means below 30%; note: 0% is about no effect
# Target sequence (Q8NER1 whole entry, looked up): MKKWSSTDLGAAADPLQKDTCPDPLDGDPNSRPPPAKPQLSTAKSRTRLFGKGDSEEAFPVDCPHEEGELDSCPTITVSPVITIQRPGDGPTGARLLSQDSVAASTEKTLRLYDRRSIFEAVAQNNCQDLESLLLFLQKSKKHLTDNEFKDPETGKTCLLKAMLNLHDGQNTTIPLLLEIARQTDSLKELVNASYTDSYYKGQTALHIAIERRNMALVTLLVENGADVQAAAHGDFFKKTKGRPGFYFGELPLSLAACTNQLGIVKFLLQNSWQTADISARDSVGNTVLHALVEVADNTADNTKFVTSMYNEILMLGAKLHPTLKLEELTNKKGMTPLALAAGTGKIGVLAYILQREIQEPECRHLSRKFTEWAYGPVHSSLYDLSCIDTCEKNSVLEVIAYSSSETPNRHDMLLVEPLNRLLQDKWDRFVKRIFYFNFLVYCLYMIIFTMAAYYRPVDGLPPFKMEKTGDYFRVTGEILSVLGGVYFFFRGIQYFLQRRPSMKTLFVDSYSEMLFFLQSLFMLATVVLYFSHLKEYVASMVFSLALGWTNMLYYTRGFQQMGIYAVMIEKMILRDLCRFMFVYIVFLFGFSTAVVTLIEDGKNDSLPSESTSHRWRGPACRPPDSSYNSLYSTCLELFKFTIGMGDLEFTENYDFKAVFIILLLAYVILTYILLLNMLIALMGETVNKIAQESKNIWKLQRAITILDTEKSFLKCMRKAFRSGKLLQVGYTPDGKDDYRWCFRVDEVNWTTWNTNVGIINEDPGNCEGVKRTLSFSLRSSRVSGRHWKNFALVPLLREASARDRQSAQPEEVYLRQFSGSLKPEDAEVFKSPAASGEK
#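 Cells expressing TRPV1 were dye-loaded with Fluo-8 and read kinetically: 10 s baseline, 3 min after compound (agonist portion), then 2 min after EC20 capsaicin (allosteric enhancer portion). Calcium-bound dye fluorescence at 480/520 nm.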
# gsp antagonist: antagonists of gsp mutant (McCune-Albright syndrome); gsp-mutant cells, cAMP HTRF, 30 min; control for the full effect not named in the record; Potency, µM (series often up to 76.9 µM), without a hit: top-dose activity change, negative = inhibition, hits mostly inhibitors; hit rate 0.4% among 340,000; AID 624288; active = falling curve of any shape with a large fitted effect; inconclusive = falling curve, mostly with a smaller effect; inactive = flat or rising curve; cell line not stated here;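 note: intracellular cAMP measured with PDE inhibitor Ro 20-1724 present during compound exposure; potency is the fitted concentration of half-maximal effect; % is set by controls: 0 for no effect and ±100 for the full control effect; nearly all actives have a fitted effect of over 65% in size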
#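 HTRF cAMP read-out (cAMP-d2 plus anti-cAMP antibody-K in lysis buffer, 30 min RT). Before lysis, cells are exposed to compounds with […] for 30 min at 37C in DPBS containing Ca/Mg, BSA and Tween 20.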
# An asterisk follows results filed as active; i = inactive; ? = inconclusive; . = not tested or not shown; & = joins results of further samples; [ ] = another dose, or the depositor's remark.
SMILES,gsp agonist,ClpP mod,Menin-MLL FL inh,D2 PAM,Sfp inh,TRPV1 PAM,gsp antagonist
COc1ccc(C2N(c3ccc(Cl)cc3)N=C(C(C)=O)N(C)N2C(C)=O)cc1 (stereo not given),-2.6%[15.4 µM],.,-0.1,-17.2,-3.9%,-11.2,.
O=C(O)c1ccc(Sc2nnnn2-c2ccccc2)c([N+](=O)[O-])c1,-33.7%[inhibitor],-1.6%,5.0,-1.5,11.8%,-15.8,5.2%
CCOC(=O)c1c(C)[nH]c(C(=O)/C(C#N)=C/c2ccc(OC(F)F)c(OC)c2)c1C,-4.4%,-2.0%,27.6,-15.6,2.3%,5.6,2.3%
O=C(c1ccc(CNc2c(N3CCCC3)c(=O)c2=O)cc1)N1CCN(C2CCCCC2)CC1,8.5%,0.1%,-2.1,-8.8,8.8%,6.9,-1.5%
CC1(C)c2[nH]c3ccccc3c2C[C@H]2C(=O)N(N)CC(=O)N21,-2.2%,.,-1.2,1.7,-3.9%,10.1,-0.3%
CCCCC(OC(=O)c1ccco1)C(=O)NCc1ccc(C)cc1 (stereo not given),-6.3%,.,-5.2,-4.7,-2.3%,-14.9,10.1%
N#Cc1c(-c2ccccc2)nc(SCC(=O)Nc2nnc(C(F)(F)F)s2)[nH]c1=O,?,.,-0.5,-8.0,33.4%[activator],5.3,1.3%
COc1cc(/C=C/C(=O)O)cc(S(=O)(=O)NCCCC(=O)O)c1OC,1.6%,.,-5.8,-0.3,-15.0%,-10.7,7.1%
CCN(CC)S(=O)(=O)c1ccc(N/N=C(\C)c2ccncc2)nc1,-9.2%,.,1.2,-7.4,6.7%,5.7,-3.6%
CC1(c2cccc([N+](=O)[O-])c2)CC(C)(C)N(C(=O)c2ccccc2)c2ccccc21 (stereo not given),9.5%,-0.9%,7.9,-7.6,-0.5%,-2.3,-0.7%
CN(CCc1ccccc1)C(=O)c1cccc(NC(=O)Cc2ccc([N+](=O)[O-])cc2)c1,2.3%,0.3%,.,3.2,.,.,?
CC1=C(C(=O)NC(C)C)C2(CCC(C)CC2)OC1=O (stereo not given),?,1.0%,-0.4,-6.6,21.5%,11.4,0.9%
C[C@H](CO)N1C[C@H](C)[C@H](CN(C)C(=O)Nc2cccc(C(F)(F)F)c2)OCc2cnnn2CCCC1=O,-18.4%,2.0%,.,-0.3,.,.,.
C=CCSc1nc2ccsc2c(=O)n1-c1cccnc1,22.7%[15.4 µM],.,0.5,-6.0,?,-1.8,1.7%
COc1cccc(CNC(=O)CCC2CCCN(c3cc(C)nc(N4CCCC4)n3)C2)c1 (stereo not given),-5.6%[15.4 µM],.,1.4,-9.0,-9.2%,1.4,2.7%
Cc1cnc(CN2CCCC(C(=O)c3ccc4c5c(cccc35)CC4)C2)[nH]1 (stereo not given),7.5%[15.4 µM],.,4.5,-16.3,-3.9%,-10.3,.
COc1cccc(-n2c(Cc3cc(=O)[nH]c(=O)[nH]3)nnc2SC(C)C)c1,25.2%,0.6%,-12.2,-10.6,-11.5%,14.5,-1.3%
CN1CCN(CC(=O)NC23CC4CC(CC(C4)C2)C3)CC1,8.8%,.,-0.6,1.8,-8.8%,6.3,14.6%
COc1cc2c(cc1OC)C1O[C@](c3ccsc3)(C2)OC2=C1C(=O)OC1(CCCCC1)C2,.,.,0.7[11.7 µM],.,-13.2%,i,.
Cc1ccc(Oc2nc3ccccc3n3c(C)nnc23)c(C)c1,2.2%,0.4%,2.5,-8.5,16.6%,-10.8,9.0%
CC(NC(=O)C1CCC1)c1ccc(Cl)cc1 (stereo not given),-29.5%,0.1%,3.8,-9.2,9.0%,-12.5,1.9%
CCOC(=O)N1CCN(C(=O)c2ccc(OC)c(OC)c2)CC1,-5.4%,-1.8%,-0.2,-12.0,16.6%,-0.2,14.4%
COC(=O)c1sccc1NC(=O)Nc1ccc(OC)cc1OC,0.0%,0.0%,-3.2,-5.2,5.6%,2.7,1.8%
Cn1nnnc1SCc1nc2scc(-c3ccccc3)c2c(=O)[nH]1,?,-1.0%,1.7,-0.6,12.6%,23.3,?
O=C(NCc1ccc(F)cc1)c1cc2c(s1)CCCC2,14.9%,0.8%,3.3,-15.9,-9.8%,-19.2,4.8%

# Reprinted at random: 3 records from the list
SMILES,gsp agonist,ClpP mod,Menin-MLL FL inh,D2 PAM,Sfp inh,TRPV1 PAM,gsp antagonist
Cc1cnc(CN2CCCC(C(=O)c3ccc4c5c(cccc35)CC4)C2)[nH]1 (stereo not given),7.5%[15.4 µM],.,4.5,-16.3,-3.9%,-10.3,.
CN(CCc1ccccc1)C(=O)c1cccc(NC(=O)Cc2ccc([N+](=O)[O-])cc2)c1,2.3%,0.3%,.,3.2,.,.,?
O=C(NCc1ccc(F)cc1)c1cc2c(s1)CCCC2,14.9%,0.8%,3.3,-15.9,-9.8%,-19.2,4.8%

# (more compounds)
SMILES,gsp agonist,ClpP mod,Menin-MLL FL inh,D2 PAM,Sfp inh,TRPV1 PAM,gsp antagonist
O=C(Nc1ccc(OC(F)(F)F)cc1)c1cc(S(=O)(=O)N2CCCCC2)ccc1N1CCOCC1,-128.7%[inhibitor],?,.,-14.2,.,.,.
CCCCn1c(N)c(N(CCC(C)C)C(=O)CSc2nc3ccccc3n2C)c(=O)[nH]c1=O,-5.1%,-4.3%,.,-26.8,.,.,-0.6%
C[C@]1(C(=O)NCCCNc2ncc(C(F)(F)F)cc2Cl)C=C[C@@H](Cc2ccccc2)N1C(=O)c1ccccc1,-0.7%,-0.9%,3.6&-7.7,-0.3,-0.7%&9.1%,-9.4,-7.9%
O=C(CSc1nc2c(sc3ccccc32)c(=O)n1CCCN1CCCC1)NCc1ccccc1,-2.5%[15.4 µM],-17.3%,2.3,-10.0,-6.2%,-4.4,-23.4%
Cn1cccc1C(=O)NC(=O)COC(=O)CC12CC3CC(CC(Br)(C3)C1)C2,-1.6%,28.2µM*,-0.6,-3.3,-4.5%,-13.5,6.7%
CCOc1ccc(N/C(SC)=C(/C#N)C(N)=O)cc1,-5.2%,0.1%,0.8,-9.7,-4.1%,-1.4,-1.5%
O=C(CN1C(=O)CCSc2ccccc21)Nc1ccc2c(c1)OCCO2,8.8%,-1.7%,-0.1,-16.1,0.4%,4.2,-7.1%
COc1ccc(OC)c(C(=O)CSc2nnc(C3CC3)n2C2CC2)c1,?,8.7%,.,-10.4,.,.,.
O=C(Nc1ccc2c(c1)OCO2)C1CC(=O)N(c2ccc3c(c2)OCCO3)C1 (stereo not given),-17.1%[15.4 µM],.,-1.9,-41.3,12.1%,-8.7,.
CC(=O)Nc1nc2ccccc2n1CCN(C)C,1.5%,-2.0%,-1.7,-13.2,-18.8%,-2.8,2.2%
CCOC(=O)C1CCCN(C(=O)COc2ccccc2O)C1 (stereo not given),-0.9%,1.4%,-0.9,-15.4,15.1%,-4.8,7.0%
C=C1c2cccc(OC)c2O[C@H](C(=O)OCC)[C@@H]1CCCCCC,.,-2.1%&-3.0%,-5.2[94.6 µM],1.4,?,.,-1.7%
O=C(O)CCC(=O)Nc1ccc(Br)cn1,?,-1.0%,2.9,-13.2,25.2%,0.0,-1.0%
Cc1ccc(S(=O)(=O)N/N=C/c2cccn2-c2ccc(Cl)cc2)cc1,14.2%,-0.2%,1.1,-14.9,-9.3%,11.3,-9.2%
COCCNC(=S)N1CCN(Cc2cccc(OC)c2)CC1,-113.6%[inhibitor],0.1%,-3.9,-2.1,16.4%,1.7,10.5%
O=C(NNC(=O)c1ccccc1[N+](=O)[O-])c1ccc(NC(=O)c2ccccc2)cc1,-4.4%[15.4 µM],0.5%,.,-15.9,-8.3%,2.8,-5.1%
COC(=O)c1cc(C(=O)OCC(=O)c2ccc[nH]2)cc([N+](=O)[O-])c1,-29.2%,-2.7%,.,0.1,.,1.0,-9.7%
Cc1ccc(NS(=O)(=O)c2ccc(-c3ccc(=O)[nH]n3)o2)cc1,25.0%,-1.9%,1.5,4.8,10.9%,0.5,17.7%
Cc1ccc(C(=O)N/C(=C\c2sccc2C)C(=O)NCCCN2CCOCC2)cc1,-29.5%[15.4 µM],.,.,-11.1,4.8%,9.7,0.3%
Cc1cc(-c2nnc(SCC(=O)Nc3ccccc3C(F)(F)F)n2N)n[nH]1,7.4%,-2.6%,1.0,-10.4,10.9%,?,12.2%
CCOc1ccc2ccccc2c1/C=N/NC(=O)c1cc(C)[nH]n1,?,.,3.6,-11.6,13.7%,-7.5,-18.3%
COc1cc2c(cc1NC(=O)CCCCCN1C(=O)CCC1=O)oc1ccccc12,-39.7%[inhibitor],-6.8%,1.1,7.7,?,-20.0,-13.3%
Cc1onc(C(=O)N2C(C)CCCC2C)c1[N+](=O)[O-] (stereo not given),?,-3.7%,-3.0,10.3,-2.2%,19.2,16.2%
Nc1nnc(CSc2ccc(Cl)cc2)s1,10.1%,-1.8%,1.6,-3.2,1.8%,1.7,-1.4%
CC(C)c1ccc(CC(C)C2C3=C(CCCC3=O)OC3=C2C(=O)CCC3)cc1 (stereo not given),?,0.4%,6.4,2.1,-10.2%,1.6,-13.8%
O=C(Cn1cc(S(=O)(=O)Cc2cccc(F)c2)c2ccccc21)N1CCOCC1,0.1%[15.4 µM],-1.4%,.,-1.6,56.2µM*,2.1,3.6%
O=C(O)CSc1nc(-c2ccc(Cl)cc2)nc2c1oc1ccccc12,0.4%,-9.6%,-0.4,-1.9,20.6%,5.7,?

# Structures above that contain a cyano group:
SMILES,gsp agonist,ClpP mod,Menin-MLL FL inh,D2 PAM,Sfp inh,TRPV1 PAM,gsp antagonist
CCOC(=O)c1c(C)[nH]c(C(=O)/C(C#N)=C/c2ccc(OC(F)F)c(OC)c2)c1C,-4.4%,-2.0%,27.6,-15.6,2.3%,5.6,2.3%
N#Cc1c(-c2ccccc2)nc(SCC(=O)Nc2nnc(C(F)(F)F)s2)[nH]c1=O,?,.,-0.5,-8.0,33.4%[activator],5.3,1.3%
CCOc1ccc(N/C(SC)=C(/C#N)C(N)=O)cc1,-5.2%,0.1%,0.8,-9.7,-4.1%,-1.4,-1.5%
